From PubChem BioAssay
PD-1 reverse act = activators reversing PD-1 mediated T-cell inhibition; primary human CD4 T cells, PD-L1 beads, CellTiter-Glo 96 h; activation, % (test concentration not listed); 29,000 tested, under 10 active; AID 2316;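 active means replicate mean of 50% or more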;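 further: 0% = median vehicle wells and 100% = positive control; 100 nL library stock added to about 50 µL; numbers are from one replicate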
Shh pathway inh = blocks Sonic Hedgehog signaling. inhibition, % (concentration not given with the values). AID 2313. Shh-LIGHT2 Gli-luciferase reporter, 30 h. hit rate 2.1% among 22,000;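 active means replicate mean of 65% or more; inconclusive means mean lower but half the replicates past it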;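 further: pathway switched on by Shh-conditioned medium diluted 1 in 25 in low serum; 100 nL library stock added to about 40 µL; 0% = median of neutral wells and 100% = positive control level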
MITF inhib = blocks MITF activity | hit rate 0.28% among 37,000 | inhibition, % (no concentration beside the values) | TRPM1 promoter luciferase, luminescence, 24 h;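 active means most replicates at 85% or more, or half of them and the mean; inconclusive means half reach 85% but not the mean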;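 further: human melanocyte line stably carrying TRPM1 promoter luciferase reporter; 0% = vehicle wells and 100% = a positive control; the first replicate is given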
YB-1 expr inh = YB-1 expression inhibition | U2OS, qRT-PCR YB-1 vs CDIP delta delta Cp, 16 h; stronger effect = higher value; zero = DMSO, each unit about twofold | AID 434959 | hit rate 0.37% among 30,000 | delta delta Cp (YB-1 minus CDIP) (test concentration not listed);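 active means delta delta Cp rounded down to an integer at or above 3, about 3 SD of DMSO wells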;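 further: higher means less YB-1 transcript or more CDIP transcript relative to DMSO; stock transfer was 100 nL into about 100 µL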
An asterisk follows results filed as active; ? = inconclusive; . = not tested or not shown. Not all compounds are listed, so the mix of outcomes need not match the whole.

SMILES | PD-1 reverse act | Shh pathway inh | MITF inhib | YB-1 expr inh
C[C@@H]1CN([C@@H](C)CO)C(=O)c2cccc(NC(=O)Nc3cccc4ccccc34)c2O[C@H]1CN(C)S(C)(=O)=O | -4.4 | 37 | 13 | 0.4
C[C@@H]1CN([C@H](C)CO)C(=O)c2cc(NC(=O)NC3CCCCC3)ccc2O[C@@H]1CN(C)C | 0.0 | . | 1 | 0.17
C[C@@H]1CN([C@H](C)CO)C(=O)c2cc(N(C)C)ccc2O[C@H]1CN(C)S(=O)(=O)c1cn(C)cn1 | -0.1 | -15 | 3 | -0.056
Cc1nc2c(cnn2-c2ccccc2)c(=O)n1NC(=O)Nc1ccc(Cl)c(Cl)c1 | -0.5 | ? | 18 | 9.9*
C[C@@H]1CN([C@@H](C)CO)C(=O)c2cc(NC(=O)C3CC3)ccc2O[C@@H]1CN(C)Cc1ccc(Cl)c(Cl)c1 | 0.5 | . | 4 | -0.19
C[C@@H]1CN([C@H](C)CO)C(=O)c2cc(NC(=O)CCN3CCOCC3)ccc2O[C@@H]1CN(C)Cc1ccc(Oc2ccccc2)cc1 | . | 44 | -10 | 0.047
CNC[C@@H]1Oc2ccc(NS(=O)(=O)c3ccc(Cl)cc3)cc2CC(=O)N([C@H](C)CO)C[C@H]1C | 1.6 | -13 | -17 | 0.82
COc1ccc(S(=O)(=O)N(C)C[C@@H]2Oc3ccc(NC(=O)c4ccncc4)cc3C(=O)N([C@H](C)CO)C[C@@H]2C)cc1 | 0.5 | -7 | -7 | 0.053
C[C@H]1CN([C@@H](C)CO)C(=O)c2cccc(NC(=O)Nc3ccc(F)cc3)c2O[C@H]1CN(C)CC1CCCCC1 | 2.0 | -15 | 2 | 0.4
CC(=O)OCC(=O)[C@@]1(O)CCC2C3CC[C@@H]4C[C@H](OC(C)=O)CC[C@]4(C)C3C(=O)C[C@@]21C (stereo partly drawn) | . | -34 | 14 | 0.27
CN1CCN(c2ccccc2NC(=O)COc2ccc([N+](=O)[O-])cc2)CC1 | 1.5 | . | -2 | .
CC(C)NC(=O)Nc1cccc2c1O[C@H](CN(C)Cc1ccncc1)[C@@H](C)CN([C@H](C)CO)C2=O | 0.3 | -10 | -4 | 0.13
C[C@H]1CN([C@@H](C)CO)C(=O)c2cccc(NC(=O)C3CCCCC3)c2O[C@@H]1CN(C)S(=O)(=O)c1ccc(F)cc1 | . | -3 | -7 | -0.61
COc1ccccc1C(=O)Nc1ccc(S(=O)(=O)Nc2nc(C)cc(C)n2)cc1 | 2.7 | . | -7 | .
CCOC(=O)c1sc(Sc2ccc(C(F)(F)F)cn2)c2c1CC(C)(C)CC2=O | 2.7 | -13 | -13 | 2.6
CC(C)NC(=O)N(C)C[C@@H]1Oc2ccc(NS(=O)(=O)c3ccc(Cl)cc3)cc2C(=O)N([C@@H](C)CO)C[C@H]1C | 1.0 | . | -4 | -0.057
COc1c2c(nc3ccccc13)OC(C(C)(O)CO)C2 (stereo not drawn) | . | -50 | 1 | 0.15
C[C@H](CO)N1C[C@H](C)[C@@H](CN(C)Cc2ccc(-c3ccccc3)cc2)Oc2ccc(NC(=O)Nc3ccc(F)cc3)cc2C1=O | -0.6 | . | 10 | -0.059
C[C@@H]1CN([C@H](C)CO)C(=O)c2cccc(NS(=O)(=O)c3cccs3)c2O[C@H]1CN(C)Cc1ccc(Cl)c(Cl)c1 | -0.8 | 20 | -26 | 0.17
COc1ccc(NC(=O)Nc2ccc3c(c2)C(=O)N([C@@H](C)CO)C[C@@H](C)[C@@H](CN(C)Cc2ccncc2)O3)cc1 | 0.8 | -13 | 2 | -0.15
C=CCn1c(SCC(=O)O)nnc1-c1ccncc1 | 0.1 | . | -11 | .
CC(=O)c1cccc(NC(=O)CSc2nc(N3CCCCC3)nc(N3CCCCC3)n2)c1 | 1.1 | . | 10 | .
FC(F)(F)c1cccc(-c2nc3ccccn3n2)c1 | 0.5 | -60 | -26 | -0.057
CC1=Nc2ccc(Br)cc2C(c2ccccc2)N1CC(=O)NN (stereo not drawn) | -0.6 | -15 | -3 | -0.079
Cc1ccc(S(=O)(=O)Nc2ccc3c(c2)C(=O)N([C@H](C)CO)C[C@H](C)[C@H](CN(C)S(=O)(=O)c2cccs2)OCCCC[C@@H](C)O3)cc1 | . | -33 | 5 | -0.0047

Gathered by group: the entries above with a CF3 group (2)
SMILES | PD-1 reverse act | Shh pathway inh | MITF inhib | YB-1 expr inh
CCOC(=O)c1sc(Sc2ccc(C(F)(F)F)cn2)c2c1CC(C)(C)CC2=O | 2.7 | -13 | -13 | 2.6
FC(F)(F)c1cccc(-c2nc3ccccn3n2)c1 | 0.5 | -60 | -26 | -0.057

Complete entries from above:
CC(=O)c1cccc(NC(=O)CSc2nc(N3CCCCC3)nc(N3CCCCC3)n2)c1 as listed: PD-1 reverse act: 1.1; Shh pathway inh: .; MITF inhib: 10; YB-1 expr inh: .
C[C@H](CO)N1C[C@H](C)[C@@H](CN(C)Cc2ccc(-c3ccccc3)cc2)Oc2ccc(NC(=O)Nc3ccc(F)cc3)cc2C1=O as listed: PD-1 reverse act: -0.6; Shh pathway inh: .; MITF inhib: 10; YB-1 expr inh: -0.059

More records:
SMILES | PD-1 reverse act | Shh pathway inh | MITF inhib | YB-1 expr inh
O=C(CSc1nc2ccc(NC(=O)c3ccccc3)cc2s1)Nc1cccc([N+](=O)[O-])c1 | 0.2 | . | -30 | .
Cc1ccc(S(=O)(=O)Nc2ccc3c(c2)C(=O)N([C@@H](C)CO)C[C@@H](C)[C@@H](CN(C)S(=O)(=O)c2ccc(Cl)cc2)O3)cc1 | -0.3 | 50 | 39 | -0.22
C[C@@H]1CN([C@@H](C)CO)C(=O)Cc2cc(NS(C)(=O)=O)ccc2O[C@@H]1CN(C)S(=O)(=O)c1cn(C)cn1 | 1.1 | -4 | 0 | 0.056
C[C@@H]1CN([C@@H](C)CO)C(=O)c2cc(NC(=O)NC3CCCCC3)ccc2O[C@@H]1CN(C)S(=O)(=O)c1ccc(F)cc1 | 0.3 | -25 | -9 | -0.17
Cc1noc(C)c1NC(=O)N(C)C[C@H]1Oc2ccc(NS(=O)(=O)c3ccccc3)cc2CC(=O)N([C@H](C)CO)C[C@H]1C | 1.6 | -48 | -10 | -0.16
C[C@H]1CN([C@@H](C)CO)C(=O)c2cc(NS(=O)(=O)c3cccs3)ccc2O[C@@H]1CN(C)Cc1ccccc1 | 2.3 | . | -6 | 0.11
C[C@@H]1CN([C@@H](C)CO)C(=O)c2cccc(NC(=O)C3CC3)c2O[C@H]1CN(C)CC1CC1 | -1.2 | 10 | -3 | 0.093
C[C@H]1CN([C@@H](C)CO)C(=O)Cc2cc(NS(=O)(=O)c3ccc(F)cc3)ccc2O[C@H]1CN(C)C(=O)Nc1cccc2ccccc12 | 0.4 | 45 | 10 | -0.048
COc1ccc(S(=O)(=O)Nc2ccc3c(c2)C(=O)N([C@@H](C)CO)C[C@@H](C)[C@H](CN(C)S(=O)(=O)c2ccc(F)cc2)O3)cc1 | . | 10 | -8 | 0.1
CC(=O)O[C@@H]1c2c(ccc3ccc(=O)oc23)OC(C)(C)[C@@H]1OC(=O)CC(C)C | . | 40 | 5 | 0.28
C[C@H](CO)N1C[C@H](C)[C@@H](CN(C)Cc2ccc3c(c2)OCO3)Oc2c(NC(=O)Nc3ccc(C(F)(F)F)cc3)cccc2C1=O | . | 13 | 42 | 0.18
C[C@H](CO)N1C[C@H](C)[C@H](CN(C)Cc2ccncc2)Oc2ccc(NC(=O)Cc3ccccc3)cc2C1=O | . | . | 3 | -0.035
O=C(CCCN1C(=O)c2ccccc2C1=O)Nc1cc(Cl)cc(Cl)c1 | 2.0 | . | -38 | .
C[C@@H]1CN([C@H](C)CO)C(=O)c2cc(NC(=O)NC3CCCCC3)ccc2O[C@H]1CN(C)S(=O)(=O)c1ccc(F)cc1 | 0.4 | . | -3 | -0.26
C[C@H](CO)N1C[C@H](C)[C@@H](CN(C)Cc2ccc(Oc3ccccc3)cc2)Oc2ccc(NS(=O)(=O)c3cn(C)cn3)cc2C1=O | . | -50 | 2 | -0.095
C[C@@H]1CN([C@@H](C)CO)C(=O)Cc2cc(NC(=O)Nc3ccccc3)ccc2O[C@@H]1CN(C)S(=O)(=O)c1ccc(Cl)cc1 | -2.6 | 27 | 22 | 0.031
C[C@@H]1CN([C@@H](C)CO)C(=O)c2cccc(NS(=O)(=O)c3ccc(F)cc3)c2O[C@@H]1CN(C)Cc1ccc(C(=O)Nc2ccccc2N)cc1 | 0.6 | . | 15 | -0.66
C[C@H]1CN([C@@H](C)CO)C(=O)Cc2cc(NS(=O)(=O)c3ccccc3)ccc2O[C@H]1CN(C)C(=O)Nc1ccccc1 | 1.7 | -3 | -8 | 0.25
COc1cc([N+](=O)[O-])ccc1NC(=O)CN(C)S(=O)(=O)c1ccc(C)cc1 | 2.5 | . | 25 | .
C[C@@H]1CN([C@@H](C)CO)C(=O)c2cccc(NS(=O)(=O)c3cccs3)c2O[C@H]1CN(C)Cc1ccc(C(=O)O)cc1 | 2.7 | -42 | -16 | -0.074
CC(C)(C)C(=O)CSc1ncnc2sc3c(c12)CCCC3 | -2.4 | . | -53 | .
Nc1ccc(S(=O)(=O)Nc2ccc(Cl)nn2)cc1 | . | -30 | -8 | -0.23
C[C@@H]1CN([C@H](C)CO)C(=O)c2cc(NC(=O)Nc3ccc(F)cc3)ccc2O[C@H]1CN(C)C | 1.4 | -36 | 3 | -0.47
C[C@H](CO)N1C[C@H](C)[C@H](CN(C)Cc2ccc3c(c2)OCO3)Oc2c(NC(=O)Nc3ccccc3)cccc2C1=O | 0.4 | -3 | 11 | -0.11
Cc1ccc(S(=O)(=O)N(C)C[C@@H]2Oc3ccc(NC(=O)Nc4ccc(F)cc4)cc3CC(=O)N([C@@H](C)CO)C[C@@H]2C)cc1 | -1.5 | -80 | 36 | 0.21

Next part
SMILES | PD-1 reverse act | Shh pathway inh | MITF inhib | YB-1 expr inh
C[C@H](CO)N1C[C@H](C)[C@@H](CN(C)C(=O)Nc2ccc(F)cc2)Oc2c(NC(=O)C3CCCCC3)cccc2C1=O | 0.8 | -50 | 2 | -0.055
C[C@@H]1CN([C@H](C)CO)C(=O)Cc2cc(NC(=O)Nc3ccc(F)cc3)ccc2O[C@@H]1CN(C)C(=O)Nc1ccc2c(c1)OCO2 | -0.2 | -11 | -2 | -0.35
C[C@H](CO)N1C[C@H](C)[C@@H](CN(C)Cc2ccc(Cl)c(Cl)c2)Oc2c(NC(=O)Nc3ccc(C(F)(F)F)cc3)cccc2C1=O | -4.4 | -35 | 2 | -0.046
N#Cc1c(NC(=O)CSc2nc3c(c(C(F)(F)F)n2)CCCC3)sc2c1CCCC2 | 1.7 | . | -1 | .
CCC(=O)N1CCN(c2ccc(Cl)cc2NC(=O)COc2ccc(C(C)(C)C)cc2)CC1 | -2.6 | . | -8 | .
COc1ccc(CN(C)C[C@H]2Oc3c(NC(=O)NC(C)C)cccc3C(=O)N([C@@H](C)CO)C[C@H]2C)cc1 | 1.0 | -23 | -1 | 0.095
C[C@@H]1CN([C@H](C)CO)C(=O)c2cc(NC(=O)C3CCCCC3)ccc2O[C@H]1CN(C)S(=O)(=O)c1ccc(Cl)cc1 | 3.6 | . | -7 | -0.22
O=C(CC1C(=O)NCCN1C(=O)Nc1ccccc1)Nc1cccc(Cl)c1 (stereo not drawn) | 1.1 | . | -27 | .
C[C@@H]1CN([C@@H](C)CO)C(=O)c2cccc(NC(=O)Nc3ccc(F)cc3)c2O[C@@H]1CN(C)C | 3.6 | -24 | -38 | 0.08
COc1ccc(S(=O)(=O)Nc2ccc3c(c2)C(=O)N([C@H](C)CO)C[C@H](C)[C@H](CN(C)S(=O)(=O)c2c(C)noc2C)OCCCC[C@@H](C)O3)cc1 | . | -14 | -2 | -0.044
COc1ccc(NC(=O)N(C)C[C@@H]2Oc3c(NS(=O)(=O)c4ccc(OC)cc4)cccc3C(=O)N([C@H](C)CO)C[C@H]2C)cc1 | . | 2 | 6 | -0.014
Cc1noc(C)c1NC(=O)N(C)C[C@@H]1Oc2ccc(NS(=O)(=O)c3cccs3)cc2C(=O)N([C@@H](C)CO)C[C@@H]1C | 2.6 | . | 4 | 0.32
COc1ccc(NC(=O)Nc2cccc3c2O[C@@H](CN(C)Cc2ccc(C(=O)Nc4ccccc4N)cc2)[C@H](C)CN([C@@H](C)CO)C3=O)cc1 | 0.4 | . | 5 | -0.79
Cn1c(SCC(=O)Nc2ccc([N+](=O)[O-])cc2)nc2ccccc21 | -2.0 | . | 4 | .
C[C@H](CO)N1C[C@H](C)[C@H](CN(C)Cc2ccc(Cl)c(Cl)c2)Oc2ccc(NC(=O)Nc3cccc4ccccc34)cc2C1=O | -2.6 | . | 22 | 0.083
C[C@H]1CN([C@@H](C)CO)C(=O)Cc2cc(NS(C)(=O)=O)ccc2O[C@@H]1CN(C)CC1CCCCC1 | . | -10 | 6 | -0.35
O=c1cc(O)c2sc3nc(-c4ccccc4)ccc3c2[nH]1 | 0.7 | -15 | -17 | 0.046
COc1ccc(-c2cc(=O)[nH]c(SCC(=O)Nc3ccc(Br)cc3)n2)cc1 | 0.4 | . | -15 | .
